PrP UTR inh: inhibition of PrP 5' UTR reporter expression. cell-based PrP 5' UTR mRNA reporter, plate reader. inhibition, % (concentration not given with the values). hit rate 0.35% among 340,000. AID 488862, 2010;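 active means every replicate at 50% or more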;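 further: 0 = median of the neutral control wells; tested in H4 reporter cells; numbers are from one replicate; inactives centre near -14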
Sa ugtP lethal: growth inhibition of ugtP-null S. aureus, primary screen, RN4220 ugtP deletion, OD600 | hit rate 0.54% among 330,000 | growth inhibition, % (test concentration not listed) | 16 h; some inactives read as strong as hits | AID 1259309, 2017;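 active means z-score under -3 and OD600 up to 0.15 on both plates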;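 further: plate controls were untreated wells for no effect and antibiotic for full effect; wells of about 80 µL received 100 nL stock; the first replicate is given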
Mtb hypoxia inh: PubChem AID 1159583; hit rate 0.1% among 300,000; fluorescence inhibition, % (no concentration beside the values); M. tuberculosis hypoxia-regulated fluorescent reporter, fluorescence;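 active means 35 to 45% if threefold the growth effect, above 45% if 1.5-fold the growth effect; inactive means the rest, general growth blockers included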;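 further: wells of about 50 µL received 100 nL stock; 0% = vehicle wells and 100% = reference inhibitor wells; whole bacteria with a GFP reporter of the hypoxia response; strong numbers were not always called active; many hits fall short of the cut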
RN4220 kill: growth inhibition of S. aureus RN4220, primary screen, OD600; 16 h; inhibition, % (test concentration not listed); hit rate 0.33% among 330,000; AID 1259311, 2017;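 active means z-score of -3 or lower and OD600 up to 0.18 on both plates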;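 further: plate controls were untreated cells for no effect and reference antibiotic for full effect; stock transfer was 100 nL into about 80 µL; one replicate is shown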
Autofluor counter: compound fluorescence in toxin protease inhibitor counterscreen. AID 624483. fluorescence intensity (test concentration not listed). compound autofluorescence counterscreen, microsphere flow cytometry; active compounds read high. hit rate 3.1% among 360,000;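 active means at least 3 SD above the mean of all compounds, about 16000 in these data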;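 further: 100 nL of 1 mM stock went into each well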
BJeLR viability: MLPCN primary cell-based screen for lethality selective to Ras in HRASV12 cells | hit rate 0.17% among 300,000 | inhibition, % (concentration not given with the values) | BJeLR (HRASV12) viability, CellTiter-Glo ATP luminescence, 48 h; reference of the scale not given here;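 active means replicate mean above 50%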;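 further: 50 nL library stock added to about 25 µL; numbers are from one replicate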
Mtb hypoxia inh growth: second read-out of Mtb hypoxia inh, no call of its own (marks repeat the call); growth inhibition, %; measured here: M. tuberculosis growth (absorbance);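 0% = vehicle and 100% = reference antibiotic; read after six days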
Starred values were filed as active, the others as inactive; . = not tested or not shown.

#	SMILES	PrP UTR inh	Sa ugtP lethal	Mtb hypoxia inh	Mtb hypoxia inh growth	RN4220 kill	Autofluor counter	BJeLR viability
1	CC(C)c1cc(CN2CCOCC2)cc(C(C)C)c1O	-51	4	-5	1	1.8	5167	2
2	COC(=O)C1=C(C(=O)OC)[C@@H]2N(C)c3ccccc3[C@@]23C[C@@H](C(=O)OC)N(C(=O)c2ccco2)C3=N1	-10	.	.	.	.	3954	-4
3	CC(C)(CN1CCCC1)NS(=O)(=O)c1ccccc1	-16	1	-2	-4	-0.3	3971	-5
4	COc1ccc(CN(C(=O)c2oc3cc(C)c(C)cc3c2C)C2CCS(=O)(=O)C2)cc1OC (stereo not drawn)	-7	14	5	8	1.1	.	1
5	Brc1ccc(-c2nnc3ccc(N4CCN(c5ccccc5)CC4)nn23)cc1	-28	-22	13	15	1.5	9227	3
6	CCCCCCCCNC(=O)/C(C#N)=C/c1ccc2c(c1)OCCO2	-11	5	10	-2	-5.7	2074	-6
7	Cc1nc2cc(NS(=O)(=O)c3ccccc3)ccc2n1C	-10	5	-3	4	5.0	2509	2
8	COc1cc(CN2CCN(Cc3cccc(OC)c3OC)CC2)cc(OC)c1	-13	15	17	4	3.8	4568	-5
9	CCCCCCCCNc1nc(Cl)nc(NCCN2CCOCC2)n1	-18	3	3	5	2.5	3600	5
10	Cc1ccccc1N(CC(=O)NCc1ccc2c(c1)OCO2)C(=O)C1CSC(=O)C1 (stereo not drawn)	-7	7	-4	-5	1.8	3667	4
11	CC(=O)c1ccc(NC(=O)Nc2ccc(NS(=O)(=O)c3ccc(C)cc3)cc2)cc1	-9	7	6	4	3.7	2442	7
12	CSc1ccc(/C=N/NC(=O)c2cc(O)cc(O)c2)cc1	-35	.	.	.	.	2179	14
13	Cc1nc2cc(C(F)(F)F)ccc2n1C1CCN(CC(=O)N2CCOCC2)CC1	-8	9	9	5	5.3	6712	-13
14	CCN(/N=C/c1ccc(N(C)C)cc1)c1nc2ccccc2[nH]1	-11	.	.	.	.	2448	-4
15	CCOC(=O)c1ccccc1NC(=O)COC(=O)CCNS(=O)(=O)c1ccccc1	-16	4	5	0	-1.5	6287	7
16	COc1cccc(/C=N/n2c(-c3cc(C)[nH]n3)n[nH]c2=S)c1O	-10	.	.	.	.	3354	-6
17	COc1cc(C)ccc1Oc1ccc([N+](=O)[O-])cc1	-5	10	5	4	-2.7	3956	.
18	CCOC(=O)C1=C(C)N=c2sc(=Cc3cccc(OCC(=O)O)c3)c(=O)n2C1c1ccccc1 (stereo not drawn)	.	4	9	7	0.5	.	.
19	NS(=O)(=O)c1ccc(CCNC(=O)c2cc(-c3cc(Cl)ccc3O)n[nH]2)cc1	-2	0	-5	9	4.6	3960	-2
20	O=C(O)C1CCCCN1S(=O)(=O)c1cccc2nsnc12 (stereo not drawn)	-18	9	7	6	5.0	2540	8
21	O=S(=O)(c1cccc(S(=O)(=O)N2CCC(N3CCCCC3)CC2)c1)N1CCOCC1	.	2	1	7	4.4	.	-3
22	O=C(CCl)N1c2ccccc2SCC1c1ccccc1 (stereo not drawn)	-10	.	.	.	.	5992	3
23	Cn1c(/C=N/O)nc2ccccc21	-22	.	.	.	.	5038	-9
24	CC(C)Cn1c(SCC(=O)Nc2cccnc2Cl)nnc1-c1ccco1	-19	3	2	6	2.2	4314	.
25	Cc1ccc2nc(Cl)c(/C=N/n3c(C)nnc3C)cc2c1	-1	.	.	.	.	3872	7
26	C[C@H](NC(=O)COc1ccc(Cl)cc1)C(=O)N1CCC2(CC1)NCCc1[nH]cnc12	-20	5	1	4	3.7	5195	-8
27	O=C(/C=C/c1cccs1)NC(=S)NNC(=O)c1ccccc1O	-19	5	5	-5	46	3391	-10
28	Cc1cc(C)nc(SCC(=O)NN=Cc2ccc3c(c2)OCO3)n1	.	0	15	1	2.0	.	.
29	CCCN(Cc1nc(-c2ccc(Cl)cc2)no1)CC1CCCO1 (stereo not drawn)	-10	6	0	11	1.6	4273	-15
30	CCCc1[nH]nc2c1C(c1ccc(OC)c(Cn3nnc4ccccc43)c1)C(C#N)=C(N)O2 (stereo not drawn)	-7	-4	.	.	4.1	2555	-7

New compounds follow:
#	SMILES	PrP UTR inh	Sa ugtP lethal	Mtb hypoxia inh	Mtb hypoxia inh growth	RN4220 kill	Autofluor counter	BJeLR viability
31	CCOc1ccc2[nH]c(C)c(CN3CCCCCC3)c(=O)c2c1	-22	4	12	6	4.7	.	-1
32	COc1ccc(N2CCN(C(=O)CN3C(=O)NC(c4ccc(OC)cc4)(c4ccc(OC)cc4)C3=O)CC2)cc1	-12	7	11	2	-0.4	4782	-1
33	COCc1cc(=O)n2[nH]c(-c3ccccc3)cc2n1	-31	-7	.	.	-4.5	4924	-3
34	O=c1[nH]cc(C(F)(F)F)cc1NS(=O)(=O)c1ccccc1[N+](=O)[O-]	16	2	10	15	17	3968	-15
35	O=C(NCc1cccs1)C1CCCN1C(=O)NC1CCCCC1 (stereo not drawn)	-1	0	-2	1	-0.2	4112	-6
36	COc1ccc(N2CCN(C(=O)COC(=O)CCc3ccccc3OC)CC2)cc1	-19	4	8	12	1.9	5318	0
37	Cc1cc([N+](=O)[O-])nn1CC(=O)NN=Cc1ccc(O)cc1O	.	5	10	7	1.3	.	.
38	CCOC(=O)c1c(S(=O)(=O)NCc2ccc(OC)cc2)c(C)n(C)c1C	-7	1	11	9	0.2	6084	-1
39	O=C(Nc1ccccc1NC(=O)c1ccco1)c1ccco1	3	-11	12	5	2.3	22408*	8
40	COc1cc(C(=O)NN=Cc2coc3ccccc3c2=O)cc(OC)c1OC	.	7	-9	1	3.3	.	.
41	CCOc1cc2[nH]c(=S)n(CCCN(CC)CC)c(=O)c2cc1OCC	-16	9	-2	1	5.6	8924	0
42	COc1ccc(C(=O)CCC(=O)NCCc2c[nH]c3ccccc23)cc1OC	-26	5	-6	-3	4.5	5234	-11
43	CN(Cc1cccc(Cl)c1)C(=O)C1CSC2(C)CCC(=O)N12 (stereo not drawn)	-62	3	7	11	3.8	5638	-2
44	N#C/C(=C\C=C\c1ccccc1)C(=O)N1CCCC1	-7	-3	-1	-15	-3.5	3265	-8
45	COC(=O)C(Cc1ccc(O)cc1)NC(=O)CCOc1ccc(OC)cc1 (stereo not drawn)	-21	6	-7	3	9.1	3161	8
46	COc1cccc(-n2c(SCC(=O)N3CCOCC3)nc3c([nH]c4ccccc43)c2=O)c1	-20	-6	-11	-10	5.1	13304	-6
47	CCN(C(=O)COC(=O)Cc1cccc2ccccc12)C1CCS(=O)(=O)C1 (stereo not drawn)	-10	5	11	2	3.5	3435	.
48	CCOC(=O)c1ccc(N=CC2=C(O)CC(C)(C)CC2=O)cc1	-59	2	.	.	3.4	3289	-9
49	Cc1cc(C)n(CC(=O)N/N=C/c2ccc(C)o2)n1	-17	.	.	.	.	10730	2
50	NCCCCC1CNC(=S)N1CCCCC1CCCCC1 (stereo not drawn)	.	0	7	7	1.0	.	.
51	COc1ccc(C(=O)NC2(C(F)(F)F)C(=O)N(Cc3ccco3)C3=C2C(=O)CC(C)(C)C3)cc1OC (stereo not drawn)	-8	-1	-7	-9	-0.8	15193	-1
52	Nc1ncnc2nc(SCc3ccc(Cl)cc3Cl)[nH]c12	-14	-9	-5	8	0.0	2523	8
53	Cc1ccc(-n2c(Cc3cccn3C)nnc2SCC(=O)NCc2ccco2)cc1	-26	-6	-11	-8	3.2	11487	-2
54	Cc1ccc(-n2c(C)cn(C(=O)c3ccccc3)c2=S)cc1	-33	11	4	3	20	15652	1
55	COCCCn1c(C(=O)NCCN2CCOCC2)cc2c(=O)n3cccc(C)c3nc21	-9	9	7	8	0.3	5545	0
56	Cc1cc(NC(=O)c2ccc3c(c2)C(=O)N(CC(C)C)C3=O)no1	-21	1	4	17	2.8	3274	-8
57	O=C(Nc1ccc(-c2nc3ccccc3s2)cc1)c1cc(-n2cnnc2)ccc1Cl	-51	19	12	1	-10	9954	-7
58	O=C(Cn1nc(C(F)(F)F)c2c1CCCC2)NCc1ccco1	-10	-7	7	7	8.7	5641	0
59	O=C(NCc1ccccn1)c1cc(-c2ccccc2)nc2ccccc12	-23	-2	3	3	-3.7	9499	-4
60	CC(=O)c1ccc(NC(=O)CN2CCN(S(=O)(=O)c3ccc4ccccc4c3)CC2)cc1	-18	-4	-1	-7	3.5	9173	.

Reprinted at random: two records from the list.
#	SMILES	PrP UTR inh	Sa ugtP lethal	Mtb hypoxia inh	Mtb hypoxia inh growth	RN4220 kill	Autofluor counter	BJeLR viability
32	COc1ccc(N2CCN(C(=O)CN3C(=O)NC(c4ccc(OC)cc4)(c4ccc(OC)cc4)C3=O)CC2)cc1	-12	7	11	2	-0.4	4782	-1
38	CCOC(=O)c1c(S(=O)(=O)NCc2ccc(OC)cc2)c(C)n(C)c1C	-7	1	11	9	0.2	6084	-1

Remaining list, next part:
#	SMILES	PrP UTR inh	Sa ugtP lethal	Mtb hypoxia inh	Mtb hypoxia inh growth	RN4220 kill	Autofluor counter	BJeLR viability
61	Cc1cccc(NC(=O)c2sc3nc(N)c(C#N)cc3c2N)c1	-27	1	4	4	4.2	2007	3
62	COc1ccc(-n2c(=S)[nH]c3cc(C(=O)NCCCN4CCCC4=O)ccc3c2=O)cc1	-13	5	.	.	0.3	4139	0
63	COc1ccc(C(=O)N2CCN(c3ccc(C)cc3)CC2)cc1OC	-2	10	.	.	4.6	6645	-1
64	Cc1ccc(CCNC(=O)CC2Oc3ccc(C)cc3NC2=O)cc1 (stereo not drawn)	-3	6	.	.	1.4	4456	-4
65	COC(=O)C1(C(=O)OC)Sc2ccccc2C1=O	-19	-6	-5	8	3.5	7818	7
66	COc1ccccc1N1CCN(C(=O)C2CCN(S(=O)(=O)c3ccccc3F)CC2)CC1	-14	12	8	12	2.4	5612	.
67	O=C(COC(=O)/C=C/c1cccc(Cl)c1)NCc1cccs1	-9	4	20	34	2.2	3013	.
68	COc1ccc(Br)cc1CN(C)CC(=O)Nc1c(Cl)ccc(C)c1Cl	11	22	2	4	0.1	7890	5
69	CSCCC(NC(=O)c1ccccc1Cl)C(=O)NNC(=O)c1ccncc1 (stereo not drawn)	-7	5	4	6	-0.7	5377	-1
70	Cc1cc(C=Nn2cnnc2)c(C)n1-c1ccc(OCc2ccc(F)cc2)cc1	.	-10	18	-1	-4.3	.	.
71	CC(C)CC(NS(=O)(=O)c1ccc2c(c1)oc(=O)n2C)C(=O)N1CC=C(c2ccccc2)CC1 (stereo not drawn)	9	12	1	3	7.6	4936	.
72	O=C(c1ccc(Oc2ccccc2)cc1)C1CCCN(C(=O)c2cnccn2)C1 (stereo not drawn)	-15	4	6	10	0.6	4352	1
73	Fc1ccccc1CN1CCCN(C(=S)Nc2cccc(Cl)c2)C1	-13	-12	15	6	-1.8	5143	-4
74	CCOc1ccc(Cl)cc1S(=O)(=O)NCc1cccnc1	-31	-3	5	-1	7.1	4237	1
75	CCOC(=O)c1sc(C)c2c1NC(C)(c1cccc3ccccc13)NC2=O (stereo not drawn)	-13	-17	.	.	-13	2734	-7
76	COc1ccc(NC2=NC3(CCCCC3)N=C(N)N2)cc1	-19	-7	4	1	-18	3328	-2
77	CC(Sc1nc(C2CC2)n(-c2ccccc2)n1)C(=O)c1c(N)n(C)c(=O)n(C)c1=O (stereo not drawn)	-12	5	8	7	2.9	6064	9
78	COc1cccc(-c2noc(CCC(=O)N3CCN(c4cc(C)ccc4C)CC3)n2)c1	-5	7	0	2	2.3	3061	.
79	O=C(O)/C=C/C(=O)Nc1ccc(S(=O)(=O)Nc2nccs2)cc1	-10	.	.	.	.	5241	7
80	Cn1c(=N)n(CC(=O)c2cccs2)c2ccccc21	-73	-4	3	-1	0.4	7241	-4
81	COCCNC(=S)NN=C(C)c1ccccc1O	.	-2	5	-1	10	.	.
82	CC1(C)C(c2ccco2)=[N+]([O-])C2(CCCCC2=O)N1O (stereo not drawn)	-31	5	8	10	3.7	4402	5
83	CNC(=S)N/N=C(\C)c1ccc(N2CCOCC2)cc1	-32	.	.	.	.	2003	-3
84	CCCN(CCC)CCCNC(=O)c1cc2c(=O)[nH]c3ccccc3c2s1	-11	16	-3	6	0.9	3491	9
85	Cc1cccc(C=NNC(=O)c2cc(-c3cccnc3)nc3c2c(C)nn3-c2ccccc2)c1	.	-12	-6	2	-6.7	.	.
86	Cc1ccc2c(c1)C(=O)c1c(C(=O)O)cccc1-2	78*	2	8	-2	5.9	4684	-2
87	O=C1NC(=O)/C(=C/c2ccc(N3CCOCC3)o2)N1	-43	1	4	5	0.6	4013	2

Source: PubChem (several laboratories)
